E coli growth: inhibitors of Escherichia coli growth. OD600, 23 h; stronger effect = lower value. OD600 absorbance (no concentration beside the values). 330,000 compounds, 0.21% hits;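 active means OD600 absorbance below the run mean of sample wells minus 3.6 SD, in any replicate, cut at about 0.56 in these data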;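 further: stock transfer was 300 nL into about 60 µL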
rRNA inh HTS: inhibits bacterial ribosomal RNA function over humanized ribosomes. E. coli WT GFP vs humanized-ribosome RFP mutants, fluorescence, 24 h; stronger effect = lower value; DMSO median 0, no signal -100. GFP signal change (wild-type ribosome), % (concentration not given with the values). 350,000 compounds, 1.6% hits;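 active means significant combined selectivity score with lowered wild-type GFP, culture density cut under 30%, mutant RFP and density less affected; inactive means any of these conditions unmet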; further: one replicate is shown; some compounds called inactive have numbers as strong as hits
Beta2AR agonist: activates human beta-2 adrenergic receptor causing internalization; response, % (test concentration not listed); 340,000 compounds, 0.43% hits; P07550; AID 504454; Am2.2-beta2AR cells, FAP receptor internalization, flow cytometry; reference of the scale not given here;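 active means response above a set limit, near 3 SD of response in nonfluorescent compounds, cut at about 42% in these data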;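 further: stock transfer was 100 nL into about 11 µL; a reference agonist was the positive control; negative values mostly stem from fluorescent compounds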
UCH37 inh: inhibitors of human deubiquitinating enzyme UCH37; purified proteasome/UCH37, Ub-AMC cleavage fluorescence; AID 588478; Q9Y5K5; 330,000 compounds, 0.33% hits; inhibition, % (concentration not given with the values);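 active means mean of two replicates above 20%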;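 further: 0% = compound-free wells with enzyme and 100% = wells lacking proteasome; stock transfer was 100 nL into about 20 µL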
Target sequence (Q9Y5K5 whole entry, looked up): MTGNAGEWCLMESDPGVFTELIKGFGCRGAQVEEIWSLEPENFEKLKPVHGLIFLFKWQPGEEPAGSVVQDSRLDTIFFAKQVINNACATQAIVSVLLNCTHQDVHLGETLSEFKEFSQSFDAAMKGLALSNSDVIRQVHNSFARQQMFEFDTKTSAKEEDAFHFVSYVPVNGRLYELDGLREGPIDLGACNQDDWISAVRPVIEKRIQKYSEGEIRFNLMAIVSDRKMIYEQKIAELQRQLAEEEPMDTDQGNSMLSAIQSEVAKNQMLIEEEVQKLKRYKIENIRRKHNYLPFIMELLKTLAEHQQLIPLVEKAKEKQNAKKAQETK
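System: Proteasome-associated human UCH37 deubiquitinase; Input: 0.15 nM proteasome in added enzyme buffer; Also added: Ub-AMC substrate from 1 µM stock; Incubation: 30 min compound-proteasome preincubation then 25 min substrate reaction, room temperature; Detection: fluorescence, ex 355 nm, em 460 nm; Read-out: % inhibition of Ub-AMC cleavage fluorescence; Benchmarks: no-proteasome and no-compound wells.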
FGF22 binding: FGF22 (human) thermal shift binding. Q9HCT0. recombinant FGF22 thermal shift, SYPRO orange fluorescence; percent of sucrose octasulfate shift, DMSO zero. calls only at 9.99 µM. 340,000 compounds, 1.5% hits. AID 651658;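 active means melting point raised past a set limit in the mean and every replicate; three in four hits are not shown here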
HNF4A DNA FP: change in binding of human HNF4 alpha to DNA; HNF4a-FITC DNA binding, fluorescence polarization, 1 h; activity change, % at 10 µM; 360,000 compounds, 0.3% hits; in the data active means activity change above about 30%, passing the limit was not always enough;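 further: controls were the assay level and a saturating level of protein; the project sought stronger binding though the title names inhibitors; some compounds called inactive have numbers as strong as hits; positive values seem to mean higher polarization but the record does not say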
Target sequence (P41235 whole entry, looked up): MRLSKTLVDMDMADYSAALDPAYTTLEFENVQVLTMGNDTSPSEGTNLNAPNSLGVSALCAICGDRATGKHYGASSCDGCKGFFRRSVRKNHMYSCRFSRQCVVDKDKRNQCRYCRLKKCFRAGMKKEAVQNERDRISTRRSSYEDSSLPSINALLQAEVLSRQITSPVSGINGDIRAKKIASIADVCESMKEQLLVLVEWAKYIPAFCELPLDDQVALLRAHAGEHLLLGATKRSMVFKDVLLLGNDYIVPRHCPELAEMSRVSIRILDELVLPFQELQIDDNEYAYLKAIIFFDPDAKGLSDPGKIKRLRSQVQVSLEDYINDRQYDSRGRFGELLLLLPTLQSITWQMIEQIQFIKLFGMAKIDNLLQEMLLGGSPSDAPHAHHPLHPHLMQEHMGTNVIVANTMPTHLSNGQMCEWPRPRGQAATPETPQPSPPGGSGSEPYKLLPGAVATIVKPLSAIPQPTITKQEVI
ALR inh: blocks human ALR sulfhydryl oxidase activity | P55789 | purified ALR, DTT oxidation, H2O2 HRP-luminol luminescence | inhibition, % (no concentration beside the values) | 290,000 compounds, 3.8% hits;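 active means mean and each replicate at 75% or more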;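 further: stock transfer was 7.5 nL into about 7.5 µL; 0% = neutral wells and 100% = wells with inactivated enzyme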
Target sequence (P55789 whole entry, looked up): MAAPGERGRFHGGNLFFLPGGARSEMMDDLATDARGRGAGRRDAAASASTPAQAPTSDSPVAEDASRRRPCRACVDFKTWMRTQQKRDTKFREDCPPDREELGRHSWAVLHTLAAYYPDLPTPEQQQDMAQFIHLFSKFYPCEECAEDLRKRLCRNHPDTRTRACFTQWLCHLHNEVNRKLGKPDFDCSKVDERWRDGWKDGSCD
rRNA inh HTS OD600: also measured in rRNA inh HTS; calls as there; OD600 change, %; measured here: OD600 growth;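 optical density of the mix in the first replicate; 0 = DMSO median and -100 = no signal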
rRNA inh HTS RFP: further read-out of rRNA inh HTS, marked with its call; RFP signal change, %; measured here: RFP humanized mutant strains;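 first replicate; 0 = DMSO median and -100 = no signal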
An asterisk follows results filed as active; i = inactive; · = no result given; & = joins results of further samples. A portion of the library (hit frequency here may not be typical).

SMILES | E coli growth | rRNA inh HTS | rRNA inh HTS OD600 | rRNA inh HTS RFP | Beta2AR agonist | UCH37 inh | FGF22 binding | HNF4A DNA FP | ALR inh
Cc1ccccc1-c1nc2c3ccccc3nc(=S)n2[nH]1 | 0.652 | -36.6 | -43.6 | -7.5 | 7.4 | 5.7 | i | 1.1 | ·
O=C(CCCNC(=O)/C(=C\c1ccccc1F)NC(=O)c1ccccc1)OCc1ccccc1 | 0.661 | · | · | · | 1.8 | 5.5 | · | -0.3 | -11.1
CCOC1=C2[C@@H](CN(S(=O)(=O)c3ccc(C)cc3)[C@H]2c2ccccc2)[C@H]2C(=O)N(Cc3ccccc3)C(=O)[C@H]2C1 | · | 11.8 | 5.8 | 15.1 | · | · | i | 1.0 | ·
CC(=O)N/C(=C\c1ccccc1)C(=O)NC(C)C(=O)O (stereo not drawn) | · | 13.3 | 10.4 | -8.4 | -6.1 | · | i | 1.3 | -2.3
Nc1nc2nccc(-c3ccc(Cl)cc3)n2n1 | 0.782 | · | · | · | -3.6 | i | · | 4.3 | 1.7
N#Cc1ccsc1NC(=O)CCc1ccccc1 | 0.658 | 8.1 | 11.1 | 0.7 | -7.1 | 1.2 | i | 2.5 | ·
Nc1ccc(Oc2cccc(Oc3ccc(N)cc3)c2)cc1 | · | -1.4 | 0.6 | -1.4 | -5.3 | · | i | -25.2 | 99.8*
Cc1c(C(=O)O)[nH]c2c1C(=O)CC(c1ccccc1)C2 (stereo not drawn) | 0.736 | · | · | · | 4.5 | 3.1 | · | -3.8 | -12.6
CCOC(=O)C1(Cc2ccccc2)CCN(Cc2cn[nH]c2-c2ccccc2)CC1 | 0.712 | -14.4 | -15.9 | -0.2 | 2.0 | 6.1 | i | -1.4 | -26.3
COc1ccc(-c2nnc(CSc3nnc(-c4ccncc4)n3C3CCCCC3)o2)cc1OC | 0.704 | · | · | · | -6.0 | 2.9 | · | -1.8 | ·
O=C(c1cc2cc(Cl)ccc2[nH]1)N1CCc2ccccc2C1 | 0.724 | 1.7 | -7.4 | -0.5 | 7.0 | 3.8 | i | 6.5 | 0.2
O=S1(=O)N(Cc2ccccc2F)CCCN1Cc1c(F)cccc1Cl | 0.685 | -34.0 | -44.2 | -7.7 | 4.0 | 4.4 | i | 1.3 | -17.0
Cc1cc(C)c2ccc3c(C)c(C)nc3c2[nH]1 | 0.534 | -16.7 | -12.6 | -7.1 | 28.6 | -6.9 | i | -2.0 | -26.2
CC(=O)NC(CC(C)C)C(=O)NC(Cc1ccccc1)C(=O)CCl (stereo not drawn) | · | 5.8 | 18.5 | -1.7 | -0.1 | · | i | -0.6 | ·
Cn1cc(CCC(=O)NCc2ccc3c(c2)OCO3)c2ccccc21 | 0.696 | -21.5* | -10.6* | 3.0* | -1.1 | 1.5 | i | 1.1 | -9.8
Cc1ccc(C(=O)O)cc1[N+](=O)[O-] | 0.666 | 2.6 | 3.6 | 1.3 | -5.8 | 4.4 | i | 0.8 | -8.8
Cc1oc(-c2cccc(Cl)c2)nc1CN1CCC(C(=O)NC2CC2)CC1 | 0.667 | 2.9 | 7.6 | 0.5 | 2.5 | -0.6 | i | 1.0 | -1.6
C[C@H](CO)N1C[C@H](C)[C@@H](CN(C)Cc2ccccc2)OCc2cnnn2CCCC1=O | · | 7.0&3.4 | 5.0&5.4 | -3.2&-1.2 | · | · | i | 0.6 | ·
CC1CCCCN1C(=O)CCn1c(=O)oc2ccccc21 (stereo not drawn) | 0.719 | 22.9 | 12.1 | -1.4 | -6.2 | 2.4 | i | 4.0 | -5.5
Brc1csc2ncccc12 | 0.673 | 9.9 | 3.4 | 2.4 | -3.7 | 3.3 | i | -2.3 | -11.0

Some of the entries above, reformatted.
canonical_smiles,E coli growth,rRNA inh HTS,rRNA inh HTS OD600,rRNA inh HTS RFP,Beta2AR agonist,UCH37 inh,FGF22 binding,HNF4A DNA FP,ALR inh
CC1CCCCN1C(=O)CCn1c(=O)oc2ccccc21 (stereo not drawn),0.719,22.9,12.1,-1.4,-6.2,2.4,i,4.0,-5.5
O=C(c1cc2cc(Cl)ccc2[nH]1)N1CCc2ccccc2C1,0.724,1.7,-7.4,-0.5,7.0,3.8,i,6.5,0.2
Cc1oc(-c2cccc(Cl)c2)nc1CN1CCC(C(=O)NC2CC2)CC1,0.667,2.9,7.6,0.5,2.5,-0.6,i,1.0,-1.6
Brc1csc2ncccc12,0.673,9.9,3.4,2.4,-3.7,3.3,i,-2.3,-11.0
Cn1cc(CCC(=O)NCc2ccc3c(c2)OCO3)c2ccccc21,0.696,-21.5*,-10.6*,3.0*,-1.1,1.5,i,1.1,-9.8

Further results follow:
SMILES | E coli growth | rRNA inh HTS | rRNA inh HTS OD600 | rRNA inh HTS RFP | Beta2AR agonist | UCH37 inh | FGF22 binding | HNF4A DNA FP | ALR inh
COc1cccc(NC(=O)CN(c2cccc(OC)c2)S(C)(=O)=O)c1 | 0.673 | 5.0 | 3.0 | 1.1 | -2.3 | 3.5 | i | 4.5 | -6.9
CC1(C)Cc2c(c(N3CCCCC3)[nH]c(=S)c2C#N)CS1 | 0.753 | · | · | · | 0.1 | -2.2 | · | -0.5 | ·
Oc1ccc(-c2nccc(-c3cccs3)n2)cc1 | 0.658 | · | · | · | -23.6 | 0.8 | · | 4.0 | 88.6*
COCCCn1c(SCC(=O)c2c(N)n(C3CC3)c(=O)[nH]c2=O)nnc1-c1ccccc1Cl | · | -1.0 | 6.6 | -2.5 | · | · | i | -2.7 | ·
O=C(CNS(=O)(=O)c1ccccc1)OCC(=O)c1ccc(F)cc1 | 0.628 | 7.5 | 16.9 | 1.2 | 3.1 | 2.2 | i | 0.0 | -2.7
CN(C)CCOC1c2ccccc2CCc2ccc3ccccc3c21 (stereo not drawn) | 0.611 | · | · | · | 2.8 | 8.2 | i | -0.3 | -1.7
CNCCCc1[nH]nc(N)c1C#N | 0.718 | · | · | · | -6.2 | 1.2 | · | 0.5 | 10.0
Cc1cc(C(=O)NC2CCCc3c2cnn3-c2ccc(C)c(C)c2)nc(C)n1 (stereo not drawn) | 0.667 | -8.1 | -8.5 | -0.7 | 9.1 | 4.2 | i | 0.3 | 2.4
Cc1cc(C)cc(NC(=O)C2COc3ccccc3O2)c1 (stereo not drawn) | · | -16.8 | -21.9 | -1.2 | · | · | i | -2.2 | ·
CC1(C)CC2(CC(C)(C)N1)OC(=O)N1CCc3ccccc3C12C (stereo not drawn) | 0.72 | 10.5 | 9.6 | 0.6 | 6.5 | 1.8 | · | 4.3 | ·
Cn1c(=O)c2[nH]c(NN=Cc3cccc(Br)c3)nc2n(C)c1=O | 0.649 | -16.2 | -14.4 | -4.3 | 2.7 | 0.0 | i | 4.8 | ·
O=C(c1cc(COc2ccc(F)cc2F)on1)N1CCN(C2CCCC2)C(=O)C1 | 0.735 | -2.3 | -8.7 | -2.3 | -6.6 | -4.7 | i | 1.5 | -15.3
O=C1CC(c2ccccc2)C(C(=O)O)N1 (stereo not drawn) | 0.718 | 3.6 | -1.8 | -1.6 | 1.3 | -2.3 | i | -2.2 | -8.4
O=C1CC(N2CCOCC2)C(=O)N1c1cccc(Cl)c1 (stereo not drawn) | 0.691 | · | · | · | 0.1 | 3.5 | · | 0.1 | 2.7
COc1ccc(CNC(=O)c2cc3c(s2)CS(=O)C3)cc1 (stereo not drawn) | 0.722 | 8.2 | 11.0 | 0.3 | -2.7 | 3.0 | i | 0.7 | ·
CCCCC(=O)Nc1ccc(NC(=O)c2cccnc2)cn1 | 0.709 | · | · | · | -1.3 | 3.8 | · | 1.7 | -6.0
COc1ncnc2sc(-c3ccccc3)cc12 | 0.692 | · | · | · | -9.5 | 0.8 | · | 2.2 | -7.9
Cc1nc(-c2ccc(Cl)cc2)sc1C1(C)CC(c2cccc([N+](=O)[O-])c2)=NO1 (stereo not drawn) | 0.688 | 14.1 | 4.9 | -2.6 | · | 0.9 | i | -1.4 | ·
CCOC(=O)c1csc(CCNC(=O)c2oc3c(Cl)cc(C)cc3c2C)n1 | 0.709 | 5.8 | 5.2 | -3.1 | 10.4 | 1.4 | i | -2.9 | 1.5
OC(c1ccccc1)(c1nc(-c2cccc(F)c2)cs1)C(F)(F)F (stereo not drawn) | · | -65.0 | -80.2 | -21.0 | · | · | i | 4.4 | ·
CC(=O)Nc1ccc(S(=O)(=O)N2CCCN(S(=O)(=O)c3ccc(C)cc3)CC2)cc1 | 0.707 | · | · | · | -9.1 | 4.3 | · | 8.1 | -9.5
NC(=O)[C@@H]1CCCNc2c(I)cc([N+](=O)[O-])cc2C(=O)N[C@@H](Cc2ccccc2)C(=O)N[C@@H](Cc2cnc[nH]2)C(=O)N1 | · | 1.8 | -7.5 | 6.2 | 1.7 | 1.8 | i | 6.1 | 2.4
COc1cccc(CC2(CO)CCCN(Cc3cn[nH]c3-c3ccc(F)cc3)C2)c1 (stereo not drawn) | 0.7 | -2.3 | -5.2 | -0.7 | -4.7 | -2.9 | i | 2.7 | -3.9
COC(=O)N/N=C/c1cn(CCCOc2ccc(C)cc2)c2ccccc12 | · | · | · | · | 105.0* | · | · | 5.2 | -0.1
CC(=O)Nc1ccc(C(=O)NN2C(=O)NC3(CCCCC3)C2=O)cc1 | 0.642 | 12.8 | 6.4 | 1.8 | -1.0 | 2.0 | i | 1.4 | ·
CCCc1nc2c(C)cc(Br)cn2c1Cc1ccc(C)cc1 | · | -9.1 | -5.2 | 8.3 | · | · | i | 5.0 | ·
O=C(N/N=C/c1coc2ccccc2c1=O)c1cc(Br)c(O)c(Br)c1 | · | -9.6 | -0.8 | 1.1 | 1.2 | · | i | -0.6 | 97.8*
Cc1ccc(-c2csc(Nc3ccccn3)n2)cc1 | 0.683 | -40.0 | -69.2 | -14.6 | -6.1 | -0.9 | i | 2.3 | ·
CC(=O)Nc1cccc(NC(=O)c2sc3ncn(CC(=O)N4CCCCC4)c(=O)c3c2C)c1 | 0.769 | · | · | · | -12.0 | 7.0 | · | 1.4 | ·
CN(C)Cc1ccccc1Cc1ccccc1 | 0.668 | · | · | · | 0.6 | 4.9 | · | -2.7 | -6.3
Cc1ccc(S(=O)(=O)N2CC[C@H]3[C@@H](C2)C(=O)C[C@@H](c2ccccc2)N3S(=O)(=O)c2ccc(C)cc2)cc1 | · | -1.8 | 7.9 | 0.1 | · | · | i | 2.6 | ·
COc1ccc(N2CCN(Cc3cc4c(cc3Br)OCCO4)CC2)cc1 | 0.612 | -7.4 | -27.4 | -0.6 | 0.4 | 1.9 | i | 3.3 | 18.5
COc1cc(C2C(C#N)=C(N)N(Nc3ccccc3)C3=C2C(=O)CC(C)(C)C3)ccc1OCc1cccc(F)c1 (stereo not drawn) | 0.717 | · | · | · | 7.2 | -6.7 | · | 4.9 | -2.4
COc1ccccc1-c1csc(C(C)(O)c2cccc(F)c2)n1 (stereo not drawn) | · | -59.2 | -80.3 | -20.2 | · | · | i | -0.7 | ·
O=C(Nc1ccccc1)C1Cc2c(-c3ccc4c(c3)OCO4)ccnc2O1 (stereo not drawn) | · | -22.8 | -22.5 | 5.1 | · | · | i | 1.3 | ·
O=C(O)c1cccc2c1C(=O)N(CC1CCCO1)C2 (stereo not drawn) | 0.611 | 18.1 | 7.5 | 3.0 | -3.3 | 0.2 | i | 4.3 | -4.0
CCc1cccc2c(C=C(C#N)C#N)cn(CC(=O)N3CCCCCC3)c12 | 0.705 | 0.3 | 4.7 | 3.8 | 3.5 | -16.6 | i | 8.3 | -1.0
